Compound activity deposited in PubChem BioAssay by National Center for Advancing Translational Sciences (NCATS).
VDR inh: inhibitors of human vitamin D receptor; VDR-SRC2-3 peptide fluorescence polarization, 2 h; 400,000 tested, 0.93% active; AID 504847; Potency, µM, for inactives: max response, negative = inhibition, most hits filed as inhibitors; P11473; active = well fitted inhibition curve with a large enough effect; inconclusive = small, poorly fitted or top-dose-only effect, or another doubt; inactive = no such curve, though single readings can be large or run the other way; also: series mostly up to about 120 µM
Target sequence (P11473 whole entry, looked up): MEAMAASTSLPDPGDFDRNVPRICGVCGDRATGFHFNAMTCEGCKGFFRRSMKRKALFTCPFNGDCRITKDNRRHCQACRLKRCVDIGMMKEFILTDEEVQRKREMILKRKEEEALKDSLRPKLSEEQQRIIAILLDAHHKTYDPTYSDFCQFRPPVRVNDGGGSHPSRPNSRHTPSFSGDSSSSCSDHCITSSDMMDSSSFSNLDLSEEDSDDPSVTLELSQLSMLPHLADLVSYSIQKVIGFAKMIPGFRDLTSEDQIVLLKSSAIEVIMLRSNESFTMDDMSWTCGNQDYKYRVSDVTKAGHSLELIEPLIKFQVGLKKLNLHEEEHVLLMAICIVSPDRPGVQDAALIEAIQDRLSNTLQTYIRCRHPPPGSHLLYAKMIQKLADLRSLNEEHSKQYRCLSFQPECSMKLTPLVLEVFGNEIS
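Measured by FP: displacement of SRC2-3 coactivator peptide from VDR by library compounds, following a two-hour ambient incubation.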
* marks the source's active call; other numbers are inactive results; ? = inconclusive; & = joins results of further samples. % is scaled to controls: 0 for no effect and ±100 for the full control effect; potency is read from the fitted curve at half-maximal effect. Not all compounds are listed. The share of hits here may be higher or lower than overall.

VDR inh,Compound
-3.9%,CC1=C(C(=O)Nc2ccc(C)cc2C)C(c2cccs2)n2nc(SCc3ccc(Cl)cc3)nc2N1 (centres undefined)
2.1%,C=CCN1C(=O)C(C)S/C1=N\S(=O)(=O)c1ccc(Cl)cc1 (centres undefined)
-1.3%,CCOc1ccccc1NC(=O)Cn1nnc(C(=O)NCCc2ccc(OCC)c(OCC)c2)c1N
11.6%,O=S(=O)(NCCc1csc2nc(-c3ccccc3)nn12)c1cc(F)ccc1F
1.1%,CCOC(=O)C1C(c2ccc(C)o2)NC(=O)NC1(O)C(F)(F)F (centres undefined)
3.1%&1.8%,CCC(C(=O)NC1CCCCC1)n1c(SCc2ccc(F)cc2)nc2ccncc21 (centres undefined)
5.0%,CCOC(=O)c1c(C)cc(OC)cc1O
-5.4%,CCn1cc(C(=O)N2CCN(c3ccc(F)cc3)CC2)c(=O)c2cc(S(=O)(=O)N(C)C3CCCCC3)ccc21
?,CC1=NOC(=O)/C1=C\c1ccccc1
-7.2%,O=C(Nc1ccc(S(=O)(=O)O)cc1)c1ccc2c(c1)S(=O)(=O)c1ccccc1C2=O
13.1%,CSc1sc(C(=O)N(C)C)c2c1S(=O)(=O)N(C)c1ccccc1-2
3.0%,CCN1C(=O)c2ccc(-c3nc4ccccc4c(=O)o3)cc2C1=O
-17.3%,CCOC(=O)N1CCC(NC(=O)c2cc(C(=O)Nc3ccc(F)cc3F)ccc2CO)CC1
-5.1%,Cc1ccc(S(=O)(=O)N2CCCCC2C(=O)N2CCN(c3ccccc3F)CC2)cc1 (centres undefined)
0.1%,COc1ccc(OC)c(NC(=O)CCCOc2cc(=O)n(C)c3ccccc23)c1
-1.9%,O=c1c2ccccc2ncn1Cc1cccc2ccccc12
16.7%,CC(=O)c1cccc(CN2CCN(C3CCCCC3)C(CCO)C2)c1 (centres undefined)
-0.1%,COCCNC(=O)c1cc2c(=O)n3cccc(C)c3nc2n(Cc2ccncc2)c1=N
15.6%,CCC(C(=O)Nc1cccc(-c2cn3cccnc3n2)c1)c1ccccc1 (centres undefined)
-14.4%,O=C(Nc1cccc(C(=O)O)c1)Nc1cccc2ccccc12
7.3%,Cc1cccc(C(=O)Nc2ccc(OCc3cc(=O)n4ccsc4n3)cc2)c1
15.6%,Nc1cc(N)nc(SCC(=O)c2ccc3c(c2)NC(=O)CO3)n1
3.2%,COc1ccc(C(=O)N/N=C(\C)CC(=O)NC2CCCCC2)c(OC)c1
-1.5%,CCOC(=O)C1CCN(C(=O)COc2cccc(C)c2)CC1
2.2%,CN(CCCNC(=O)c1ccc(N2CCCC2=O)cc1)c1ccccc1

Additional entries follow:
VDR inh,Compound
5.2%,O=C(Nc1nc(-c2ccc(Cl)cc2Cl)cs1)C1CCCO1 (centres undefined)
-15.4%,COc1ccc2c(C)c(CCC(=O)NCCCN3CCCC3=O)c(=O)oc2c1C
13.6%,CCOC(=O)c1cccc(NC(=O)Cn2c(=O)nc(-c3ccccc3F)c3cc(Cl)ccc32)c1
13.6%,Cc1ccc(S(=O)(=O)/N=S(/C)c2ccccc2)cc1 (centres undefined)
?,COc1ccc(/C=C/C(=O)c2ccccc2)c(OC)c1
-1.2%,O=C(NCCN1CCc2ccccc2C1)C1CC(=O)N(C2CCCC2)C1 (centres undefined)
2.9%,COc1ccc(S(=O)(=O)NCC2CCCN(Cc3ccccc3Cl)C2)cc1 (centres undefined)
-2.3%,O=C(N/N=C/c1ccc(-n2ccnc2)cc1)c1cccs1
-1.5%,O=C(Cc1ccc(Cl)cc1)Nc1ccccc1C(=O)Nc1ccc(C(=O)O)cc1
-22.3%,Cc1ccn2c(Nc3ccc4c(c3)OCCO4)c(-c3ccc(N(C)C)cc3)nc2c1
-12.6%,CCn1cnc2cc(NC(=O)COc3ccc(C)cc3)ccc21
-5.2%,O=C(C1CCCN(S(=O)(=O)c2ccccc2[N+](=O)[O-])C1)N1CCCC1 (centres undefined)
17.2%,NC(=O)C1CCN(C(=O)Cn2cccc2C(=O)c2ccccc2)CC1
8.1%,COc1ccc(-c2[nH]c(-c3ccc(F)cc3)nc2SCC(=O)NC2CCCC2)cc1
?,O=C(O)CC1S/C(=N/N=C/c2ccc(-c3ccc(Cl)cc3[N+](=O)[O-])o2)NC1=O (centres undefined)
-14.9%,CN(CC(=O)Nc1ccc2c(c1)OCO2)S(=O)(=O)c1cccs1
-4.8%,CC1=CC(C)(C)N(C(=O)CN2C(=O)CCC2=O)c2ccc(C)cc21
-4.4%,COc1cc(OC)c(OC)cc1/C=N/NC(=O)CC1C(=O)NN=C1C (centres undefined)
4.7%,COC1CCN(C(=O)c2ccc3oc(C(C)C)nc3c2)CC1
17.2%,COc1ccc(C(=O)COC(=O)CCc2ccccc2)cc1
3.0%,N#Cc1nc(-c2ccc(OCc3ccccc3Cl)cc2)oc1N1CCC(C(N)=O)CC1
4.6%,O=C1CC(N2CCC(c3nc4ccccc4[nH]3)CC2)C(=O)N1Cc1ccccc1 (centres undefined)
-1.5%,CC(=O)N1CCN=C1SCc1c(F)cccc1Cl
6.0%,Cc1ccc(NC(=O)N2CCC(NC(=O)C(C)(C)C)CC2)cc1
2.6%,O=C(CN1CC(=O)Nc2ccccc21)NCCc1ccc(Cl)cc1Cl

Four records drawn at random from those above, as already listed:
VDR inh,Compound
2.6%,O=C(CN1CC(=O)Nc2ccccc21)NCCc1ccc(Cl)cc1Cl
13.6%,Cc1ccc(S(=O)(=O)/N=S(/C)c2ccccc2)cc1 (centres undefined)
-12.6%,CCn1cnc2cc(NC(=O)COc3ccc(C)cc3)ccc21
17.2%,NC(=O)C1CCN(C(=O)Cn2cccc2C(=O)c2ccccc2)CC1

(cont.)
VDR inh,Compound
2.9%,Cc1csc(N(C)C(=O)CSc2nnc(COc3ccccc3C)o2)n1
1.9%,O=C1NC(=S)S/C1=C/c1ccc(Oc2cnccn2)cc1
-1.1%,CCN1CCN(C(=O)NCc2ccccc2)CC1
10.7%,CCCNc1nc(OC(C(F)(F)F)C(F)(F)F)nc(OC(C(F)(F)F)C(F)(F)F)n1
-2.4%,Cc1ccc2c(ccc[n+]2CC(=O)c2ccccc2)c1
-4.4%,Cc1ccc(C(=O)NN2C(=O)C3C(C2=O)C2C=CC3C23CC3)cc1 (centres undefined)
3.7%,COC(=O)[C@@]12CCCCN1[C@H](c1ccc(-c3ccc(F)cc3)c(OC)c1)[C@@H]1C(=O)N(C)C(=O)[C@@H]12
-9.3%,O=C(NN=C1CCN(Cc2ccccc2)CC1)c1cc(Br)ccc1O
?,c1ccc2c(c1)OCC(c1nn3c(Cn4nnc5ccccc54)nnc3s1)O2 (centres undefined)
-0.1%,COc1cc(C(=O)Nc2nc(-c3ccc(C)cc3)cs2)ccc1OCC(=O)N1CCOCC1
6.1%,CNC(=O)CSc1nnc(-c2ccco2)n1-c1ccccc1OC
14.8%,Cc1cc(C(=O)CSc2nnnn2-c2ccc(O)cc2)c(C)n1Cc1ccc2c(c1)OCO2
-28.1%,Cc1cccc(OCCn2c(-c3ccc(Cl)cc3)nc3ccccc3c2=O)c1C
?,O=C(NCCCc1ccccc1)c1cc(COc2ccc(F)cc2Cl)on1
-25.0%,CCCOc1ccc(C(=O)C(CCC(CNCC)C(=O)c2ccc(OCCC)cc2)CNCC)cc1 (centres undefined)
-13.1%,CC(=O)N1CCc2c(sc3c2c(=O)n(-c2ccc(F)cc2)c(=O)n3Cc2cc(C)ccc2C)C1
-7.5%,O=C(NC1CCOCC1)C1CCC(=O)N(CCc2cccc(F)c2)C1 (centres undefined)
-15.8%,O=C(CN1CCN(S(=O)(=O)c2ccc(F)c(Cl)c2)CC1)N1CCNC1=O
-4.5%,CCOc1ccc([C@@H]2CC=C(C(=O)O)[C@H](c3ccc(F)cc3)N2S(=O)(=O)c2ccc(C)cc2)cc1
10.6%,Cc1ccc(OCC(O)CN2CCc3ccccc3C2)c(C)c1 (centres undefined)
-7.7%,Cc1cc(NC(=O)CSCC(=O)Nc2nc3ccc(F)cc3s2)no1
-6.0%,CNC(=O)c1csc(-c2ccc(C)cc2)n1
2.4%,COc1ccccc1Oc1ccc(N/C=C/C(=O)c2ccc(C)o2)cc1
10.2%,CC(C)C(C)NC(=O)COc1ccc(S(=O)(=O)N2CCOCC2)cc1[N+](=O)[O-] (centres undefined)
-2.0%,O=C(c1ccc2c(c1)N(Cc1cccc(F)c1)C(=O)c1ccccc1S2)N1CCC2(CC1)OCCO2

Six compounds already listed, ordered by the number in VDR inh, ascending:
Molecule	VDR inh
Cc1cc(NC(=O)CSCC(=O)Nc2nc3ccc(F)cc3s2)no1	-7.7%
CCOc1ccc([C@@H]2CC=C(C(=O)O)[C@H](c3ccc(F)cc3)N2S(=O)(=O)c2ccc(C)cc2)cc1	-4.5%
Cc1ccc(C(=O)NN2C(=O)C3C(C2=O)C2C=CC3C23CC3)cc1 (centres undefined)	-4.4%
O=C(c1ccc2c(c1)N(Cc1cccc(F)c1)C(=O)c1ccccc1S2)N1CCC2(CC1)OCCO2	-2.0%
COc1ccccc1Oc1ccc(N/C=C/C(=O)c2ccc(C)o2)cc1	2.4%
Cc1csc(N(C)C(=O)CSc2nnc(COc3ccccc3C)o2)n1	2.9%

Continuation.
VDR inh,Compound
-1.4%,CCOc1ccc(-n2nc3cc(C)c(NC(=O)CC)cc3n2)cc1
-6.5%,COc1ccc(NC(=O)N[C@@H](CCSC)C(=O)O)cc1Cl
-12.3%,COc1ccccc1C(=O)Nc1ccc2c(c1)nc1n2CCN(Cc2ccccc2)C1
-3.7%&1.2%,Cc1ccc(-n2c(SCC(N)=O)nc3c([nH]c4ccccc43)c2=O)cc1
-13.5%,COCCNC(=O)Cn1cnc2sc(C)c(S(=O)(=O)N3CCC(C)CC3)c2c1=O
-0.3%&12.9%,CC(C)C(=O)Nc1nnc(S(=O)(=O)N2c3ccccc3CC2C)s1 (centres undefined)
0.2%&-14.6%,O=C(O)c1ccc(OCCCOc2ccc(C(=O)O)cc2)cc1
-8.3%,C[C@H](CO)N1C[C@H](C)[C@@H](CN(C)S(=O)(=O)c2ccccc2)Oc2ccc(NC(=O)NC3CCCCC3)cc2C1=O
-3.0%,COC(=O)c1ccc(CNC(=O)CSC2=NCCS2)cc1
-3.0%,N#Cc1c(SCC(=O)Nc2cccc(F)c2)sc2c(O)cc(=O)[nH]c12
12.7%,Brc1cc(Br)c2nc(-c3cccs3)ccc2c1
-19.3%,CC(C)N1CCC(N2CCN(Cc3ccc4nonc4c3)CC2CCO)CC1 (centres undefined)
6.6%,O=[N+]([O-])c1ccccc1N/N=C/c1c[nH]c2ccccc12
-0.4%,c1ccc(-c2nc(NCc3ccco3)c3ccccc3n2)nc1
14.5%,NCCNC(=O)c1c(NC(=O)c2ccccc2)sc2c1CCCC2
7.7%,COc1cc(OC)cc(C(=O)NC(=S)Nc2ccc(Cl)c(C(=O)O)c2)c1
8.5%,CCOc1ccccc1N(CC(=O)NCCSc1ccccn1)S(=O)(=O)c1ccc(C)cc1
18.3%,COC(=O)c1ccc(C)c(NC(=O)CCCN2C(=O)CN(C)C2=O)c1
-26.8%,Cc1ccc(C(=O)N2N=C3c4ccccc4S(=O)(=O)N3[C@H]2N(C)C)cc1
-9.8%,CC(=O)NNc1ncnc2c1cnn2-c1ccc(C)c(Cl)c1
10.2%,Brc1cc2[nH]cnc2c2ccccc12
-8.1%,CCOC(=O)c1c(C)oc2ccc(NS(=O)(=O)c3cccs3)cc12
6.4%,O=c1c2c(nc3nc(COc4ccccc4)[nH]n13)CCC2
-4.5%,Cc1noc(C)c1S(=O)(=O)Nc1ccc(O)c2c(=O)cc(-c3ccccc3Cl)oc12
-27.4%,CN(CC(=O)Nc1ccccc1Cl)C(=O)COC(=O)c1ccc(=O)n(Cc2ccccc2)n1

Further results.
VDR inh,Compound
15.1%,COc1cccc(CNC(=O)Cn2ncn3c(cc4ccccc43)c2=O)c1
6.2%,CCOc1ccc2c(c1)[C@@H]1C=CC[C@@H]1[C@H](c1ccccc1Cl)N2
1.4%,CC1CCC(NC(=O)Cn2cnc3sccc3c2=O)CC1 (centres undefined)
3.4%,CC(C)C(=O)Nc1ccc2nc(SCC(=O)N3CCOCC3)sc2c1
3.1%,Cc1ccc(-c2noc(C3CCN(S(=O)(=O)c4ccc5c(c4)OCCO5)CC3)n2)o1
-6.4%,COCCCn1c(Cc2csc(Nc3cccc(Cl)c3)n2)nnc1SCC(=O)OC1CCCCC1
3.5%,COC(=O)c1c(C)[nH]c(C(=O)OCC(=O)c2ccc(C)s2)c1C
-2.9%,COc1ccc(NC(=S)NCCc2ccccc2)c(OC)c1
13.5%,O=C1OC(c2ccccc2)=N/C1=C\N1CCCCC1
3.8%,CC1CCCN(C(=O)Cn2nnc(-c3cccnc3)n2)C1 (centres undefined)
?,Oc1ccc(/C=N/N2CCCCC2)c(O)c1O
-5.2%,O=C(NC(C(=O)c1ccccc1)n1cnccc1=O)c1ccccc1 (centres undefined)
7.7%,CC(=O)c1ccc(NC(=O)Cn2c(=O)nc(-c3ccccc3)c3ccccc32)cc1
-6.9%,COc1ccc(NS(=O)(=O)c2cccc(C(=O)NNC(=O)c3cncc(Br)c3)c2)cc1
11.9%,Cc1cc(C)c2c3c(sc2n1)C1(CCSCC1)C(C#N)=C(N)O3
4.4%,Cc1ccc(S(=O)(=O)N(C)CC(=O)NC2CCCC2)cc1
-23.4%,COc1ccccc1NS(=O)(=O)c1cccc(C(=O)N/N=C/c2ccc(OCC(=O)O)cc2)c1
-7.4%,CCn1cc(C(=O)NN)c(=O)c2cc(F)c(N3CCCCC3)cc21
-0.3%,Nc1cccc(/C=C/C(=O)O)c1
13.4%,CCCC(C(=O)NC1CCCC1)N(C(=O)Cn1nnc(-c2ccc(C)o2)n1)c1ccccc1F (centres undefined)
11.2%,O=C(CC1(O)C(=O)N(CN2CCOCC2)c2ccccc21)c1ccccc1 (centres undefined)
-4.5%,CNC(=S)NCc1ccc(Cl)cc1
11.3%,O=C(COc1ccc(-n2cnnn2)cc1)Nc1ccc(F)c(Cl)c1
-4.7%,CCOc1ccc(CCNC(=O)COC(=O)c2ccc(Br)o2)cc1OCC
